# Vaccinia inh: Vaccinia orthopox stage-specific inhibition; Vaccinia-infected cells, mCherry/Venus stage reporter fluorescence; active compounds read low; some inactives read as strong as hits; activity change (mCherry), % (test concentration not listed); 89,000 tested, 0.01% active; AID 1053133;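 active = mCherry past -33% and 40 or more points under the early reporter, replicates agreeing; inconclusive = past -33% without that gap or agreement; tested in A549 cells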;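 also: scaled between vehicle wells and reference inhibitor wells; 23 nL library stock went into each well; one replicate is shown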
# Vaccinia inh Venus: recorded beside Vaccinia inh, whose call it bears; activity change (Venus), %; measured here: Venus reporter, other viral stage;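 negative = less Venus signal; first of two replicates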
# An asterisk follows results filed as active; ? = inconclusive; · = no result given. Not all compounds are listed (hit frequency here may not be typical).
entry	mol	Vaccinia inh	Vaccinia inh Venus
1	C[C@@H]1CCCCO[C@@H](CN(C)S(=O)(=O)c2cn(C)cn2)[C@@H](C)CN([C@H](C)CO)C(=O)c2cc(NC(=O)c3ccncc3)ccc2O1	1.9	-0.4
2	C[C@H]1CN([C@@H](C)CO)C(=O)c2cc(C3=CCCC3)cnc2O[C@@H]1CN(C)Cc1ccccc1	-13.2	-14.6
3	CC(C)NC(=O)N1[C@H](C(=O)NC2CCC2)[C@@H](CO)[C@@H]2Cn3c(ccc(-c4ccccc4F)c3=O)[C@@H]21	6.0	4.7
4	Cc1noc(C)c1NC(=O)N(C)C[C@H]1Oc2ccc(NS(=O)(=O)c3cn(C)cn3)cc2C(=O)N([C@H](C)CO)C[C@@H]1C	13.1	0.4
5	C[C@@H]1CCCCO[C@H](CN(C)S(=O)(=O)c2ccccc2)[C@H](C)CN([C@@H](C)CO)C(=O)c2cc(NS(=O)(=O)c3cccs3)ccc2O1	-20.4	-16.7
6	CO[C@@H](CN(C)Cc1ccc(-c2ccccn2)cc1)[C@H](C)CN(C(=O)Nc1ccc(F)cc1)[C@H](C)CO	10.0	8.9
7	Cc1ccc(S(=O)(=O)Nc2ccc3c(c2)C(=O)N([C@@H](C)CO)C[C@H](C)[C@@H](CN(C)C)OCCCC[C@H](C)O3)cc1	-4.8	2.6
8	CCCN1[C@H](C(=O)N(C)C)[C@@H](CO)[C@@H]2Cn3c(ccc(C4=CCCCC4)c3=O)[C@@H]21	-1.3	5.2
9	CNC[C@H]1Oc2ccc(NC(=O)c3ccncc3)cc2CC(=O)N([C@@H](C)CO)C[C@H]1C	11.6	10.1
10	C[C@@H]1CN([C@H](C)CO)C(=O)c2cc(NC(=O)Nc3ccc(C(F)(F)F)cc3)ccc2O[C@@H]1CN(C)Cc1ccc(C(=O)Nc2ccccc2N)cc1	-0.1	-4.6
11	CCS(=O)(=O)Nc1ccc2c(c1)C(=O)N(C)[C@@H]1CC[C@@H](CC(=O)OC)O[C@H]1CO2	-1.9	-8.8
12	COc1ccc(S(=O)(=O)N2CCCCN3[C@H](CO)[C@H](c4ccc(C#CC(C)C)cc4)[C@H]3C2)cc1	?	·
13	CCCN1C[C@H](C)[C@H](OC)CN(C)C(=O)c2cc(NS(=O)(=O)c3cn(C)cn3)ccc2OC[C@@H]1C	4.5	9.6
14	C[C@H](CO)N1C[C@H](C)[C@H](CN(C)C)OCCCC[C@H](C)Oc2ccc(NC(=O)CCC(F)(F)F)cc2C1=O	1.4	-2.6
15	CC(C)NC(=O)N(C)C[C@@H]1OCCCC[C@@H](C)Oc2ccc(NS(=O)(=O)c3ccccc3)cc2C(=O)N([C@@H](C)CO)C[C@@H]1C	10.5	9.1
16	O=C(C[C@H]1C[C@@H]2c3cc(NC(=O)C4CCOCC4)ccc3O[C@@H]2[C@H](CO)O1)NCc1ccc2c(c1)OCO2	8.0	4.9
17	CN(C)CC(=O)N[C@H]1CC[C@@H](CCn2cc(C3CCCC3)nn2)O[C@@H]1CO	18.1	25.6
18	Cc1ccccc1-c1cnc2c(c1)C(=O)N([C@@H](C)CO)C[C@H](C)[C@H](CN(C)Cc1ccccc1F)O2	-15.7	-18.2
19	COc1ccc(NC(=O)Nc2ccc3c(c2)C(=O)N([C@@H](C)CO)C[C@H](C)[C@@H](CN(C)S(=O)(=O)c2ccc(C)cc2)OCCCC[C@H](C)O3)cc1	5.2	4.9
20	O=C(O)C[C@@H]1C[C@H]2c3cc(NC(=O)Nc4ccccc4)ccc3O[C@H]2[C@@H](CO)O1	11.9	-3.3
21	CC(=O)N1[C@H](CNC(=O)CN(C)C)[C@@H](c2ccc(C3=CCCCC3)cc2)[C@@H]1CO	?	·
22	O=C(C[C@@H]1C=C[C@@H](NC(=O)Cc2cccnc2)[C@@H](CO)O1)NCc1ccc2c(c1)OCO2	11.1	5.7
23	C[C@@H]1CN([C@@H](C)CO)C(=O)c2cc(NS(=O)(=O)c3cccs3)ccc2O[C@H]1CN(C)Cc1ccc(Cl)c(Cl)c1	-4.0	-3.0
24	O=C(c1cccc(F)c1)N1CCCCN2[C@H](CO)[C@H](c3ccc(-c4ccccc4)cc3)[C@@H]2C1	-22.0	-16.9
25	CCC(=O)N1CCCCN2[C@H](CO)[C@@H](c3ccc(C#Cc4cccnc4)cc3)[C@@H]2C1	19.4	8.9
26	O=S(=O)(Cc1ccccc1)N1CCCCN2[C@H](CO)[C@@H](c3ccc(C#Cc4ccccc4)cc3)[C@@H]2C1	1.5	6.7
27	COc1ccc(CN(C)C[C@H]2OCCCC[C@@H](C)Oc3ccc(NS(=O)(=O)c4cccs4)cc3C(=O)N([C@H](C)CO)C[C@@H]2C)cc1	11.0	2.9
28	COc1ccc(CN(C)C[C@H]2Oc3ccc(NC(=O)Nc4ccc(C(F)(F)F)cc4)cc3C(=O)N([C@H](C)CO)C[C@@H]2C)cc1	?	·
29	COc1ccc(S(=O)(=O)N(C)C[C@H]2Oc3ccc(NC(=O)C4CC4)cc3CC(=O)N([C@H](C)CO)C[C@H]2C)cc1	13.5	17.4
30	COc1ccc(CN2C[C@@H](O)COC[C@@H]3O[C@@H](CC(=O)NCc4ccccc4Cl)CC[C@H]32)cc1	-9.2	-4.0
31	O=C(NC[C@H]1CC[C@@H]2[C@@H](CN2S(=O)(=O)c2ccccc2[N+](=O)[O-])O1)C1CCC1	9.6	17.1
32	Cc1ccc(S(=O)(=O)Nc2ccc3c(c2)CC(=O)N([C@H](C)CO)C[C@@H](C)[C@@H](CN(C)Cc2ccccc2)O3)cc1	-24.2	-22.1
33	O=C(c1ccccn1)N1CC2(C1)[C@@H](c1ccccc1)[C@@H](CO)N2C(=O)C1CCC1	7.0	9.5
34	O=C(Nc1cc(F)ccc1F)N1CC(=O)N2[C@@H](CO)[C@@H](c3ccc(C#CC4CCCC4)cc3)[C@@H]2C1	-23.2	-20.8
35	O=C(N[C@@H]1CC[C@H](CCn2cc(C3(O)CCCC3)nn2)O[C@@H]1CO)C1CCOCC1	1.2	-0.1
36	CCCN(C)C[C@H]1Oc2ncc(C#CCN(C)C)cc2C(=O)N([C@H](C)CO)C[C@@H]1C	25.6	11.2
37	C/C=C/c1ccc2c(c1)O[C@@H](CN(C)C(=O)Nc1ccc(OC)cc1)[C@@H](C)CN([C@H](C)CO)S2(=O)=O	-31.8	-29.6
38	COc1ccc(CN2C[C@@H](O)COC[C@H]3O[C@H](CC(=O)N(C)C)CC[C@@H]32)cc1	18.7	4.1
39	CN(C)C(=O)[C@@H]1[C@@H](CO)[C@@H]2Cn3c(ccc(-c4cncnc4)c3=O)[C@@H]2N1Cc1ccccc1F	3.5	4.8
40	COc1ccc(CN2CC3(CN(C(C)=O)C3)c3c(n(C)c4cc(OC)ccc34)[C@@H]2CO)cc1	19.5	13.7

[41] CNC[C@H]1Oc2cc(-c3ccncc3)ccc2S(=O)(=O)N([C@@H](C)CO)C[C@H]1C
  Vaccinia inh = -1.4; Vaccinia inh Venus = -8.8
[42] C[C@@H]1CN([C@@H](C)CO)C(=O)c2cc(C3=CCCCC3)cnc2O[C@@H]1CN(C)C(=O)c1ccccn1
  Vaccinia inh = 12.1; Vaccinia inh Venus = 9.5
[43] C[C@@H]1CN([C@H](C)CO)C(=O)Cc2cc(NC(=O)C3CC3)ccc2O[C@@H]1CN(C)C(=O)Nc1cccc2ccccc12
  Vaccinia inh = 13.2; Vaccinia inh Venus = 16.0
[44] CC(=O)N[C@@H]1CC[C@@H](CCNC(=O)Nc2ccc(C(F)(F)F)cc2)O[C@H]1CO
  Vaccinia inh = -1.6; Vaccinia inh Venus = -1.3
[45] C[C@@H]1CN([C@@H](C)CO)C(=O)c2cc(NS(=O)(=O)c3ccc(Cl)cc3)ccc2O[C@@H](C)CCCCO[C@@H]1CN(C)C(=O)CCCN(C)C
  Vaccinia inh = 28.8; Vaccinia inh Venus = 17.8
[46] O=C(CC1CC1)N1CC2(C1)[C@@H](c1ccccc1)[C@@H](CO)N2C(=O)C1CCOCC1
  Vaccinia inh = 12.5; Vaccinia inh Venus = 11.4
[47] COc1ccc2c3c([nH]c2c1)[C@@H](CO)N(Cc1cccc(Cl)c1)CC31CN(C)C1
  Vaccinia inh = -18.1; Vaccinia inh Venus = -7.4
[48] O=C(C[C@H]1C=C[C@@H](NC(=O)Nc2cc(F)ccc2F)[C@H](CO)O1)Nc1ccccc1
  Vaccinia inh = -14.0; Vaccinia inh Venus = 5.3
[49] COc1ccc(-c2cnc3c(c2)C(=O)N([C@@H](C)CO)C[C@H](C)[C@H](CN(C)C(=O)C2CCOCC2)O3)cc1
  Vaccinia inh = 15.1; Vaccinia inh Venus = 10.3
[50] COc1ccc(NC(=O)N(C)C[C@@H]2Oc3ccc(NS(=O)(=O)c4c(C)noc4C)cc3CC(=O)N([C@H](C)CO)C[C@H]2C)cc1
  Vaccinia inh = 1.8; Vaccinia inh Venus = 6.6

[51] CCCNC(=O)[C@@H]1[C@@H](CO)[C@@H]2Cn3c(cccc3=O)[C@@H]2N1Cc1cccc(F)c1
  Vaccinia inh = 25.8; Vaccinia inh Venus = 10.5
[52] COC(=O)C[C@@H]1CC[C@H]2[C@H](COc3ccc(NC(=O)c4ccccc4F)cc3C(=O)N2C)O1
  Vaccinia inh = 5.8; Vaccinia inh Venus = 10.4
[53] Cc1cc(C(=O)Nc2cccc3c2O[C@@H](CN(C)S(=O)(=O)c2cccs2)[C@H](C)CN([C@H](C)CO)C3=O)n(C)n1
  Vaccinia inh = 4.9; Vaccinia inh Venus = 8.0
[54] C[C@H]1CN([C@@H](C)CO)S(=O)(=O)c2ccc(C#Cc3ccccn3)cc2O[C@H]1CN(C)Cc1cccc(F)c1
  Vaccinia inh = 8.6; Vaccinia inh Venus = -3.1
[55] O=C(CCN1CCCCC1)N[C@@H]1CC[C@H](CC(=O)N2CCC(Cc3ccccc3)CC2)O[C@H]1CO
  Vaccinia inh = -3.2; Vaccinia inh Venus = 0.6
[56] C[C@H](CO)N1C[C@H](C)[C@@H](CN(C)S(=O)(=O)c2ccc(F)cc2)Oc2ccc(NC(=O)CCC(F)(F)F)cc2CC1=O
  Vaccinia inh = 7.8; Vaccinia inh Venus = 4.7
[57] Cc1ccc(S(=O)(=O)Nc2ccc3c(c2)C(=O)N([C@@H](C)CO)C[C@H](C)[C@@H](CN(C)C(=O)Nc2ccc(C(F)(F)F)cc2)O3)cc1
  Vaccinia inh = 34.1; Vaccinia inh Venus = 18.0
[58] Cc1cc(C(=O)Nc2cccc3c2O[C@@H](CN(C)Cc2ccc(C(F)(F)F)cc2)[C@@H](C)CN([C@H](C)CO)C3=O)n(C)n1
  Vaccinia inh = -5.8; Vaccinia inh Venus = 1.1
[59] COc1ccc(C#Cc2ccc3c(c2)O[C@@H](CN(C)C(C)=O)[C@@H](C)CN([C@H](C)CO)S3(=O)=O)cc1
  Vaccinia inh = -33.4; Vaccinia inh Venus = -24.8
[60] COCC(=O)Nc1ccc2c(c1)C(=O)N(C)C[C@H](OC)[C@@H](C)CN(Cc1cc(F)ccc1F)[C@H](C)CO2
  Vaccinia inh = -12.8; Vaccinia inh Venus = -4.5

# Some of the entries so far, with values under each structure.
# Values run as follows: Vaccinia inh	Vaccinia inh Venus
[58] Cc1cc(C(=O)Nc2cccc3c2O[C@@H](CN(C)Cc2ccc(C(F)(F)F)cc2)[C@@H](C)CN([C@H](C)CO)C3=O)n(C)n1
 : -5.8	1.1
[59] COc1ccc(C#Cc2ccc3c(c2)O[C@@H](CN(C)C(C)=O)[C@@H](C)CN([C@H](C)CO)S3(=O)=O)cc1
 : -33.4	-24.8

# Some of the entries so far, with two lines to a compound:
# Values run as follows: Vaccinia inh, Vaccinia inh Venus
57) Cc1ccc(S(=O)(=O)Nc2ccc3c(c2)C(=O)N([C@@H](C)CO)C[C@H](C)[C@@H](CN(C)C(=O)Nc2ccc(C(F)(F)F)cc2)O3)cc1
→ 34.1, 18.0
58) Cc1cc(C(=O)Nc2cccc3c2O[C@@H](CN(C)Cc2ccc(C(F)(F)F)cc2)[C@@H](C)CN([C@H](C)CO)C3=O)n(C)n1
→ -5.8, 1.1
59) COc1ccc(C#Cc2ccc3c(c2)O[C@@H](CN(C)C(C)=O)[C@@H](C)CN([C@H](C)CO)S3(=O)=O)cc1
→ -33.4, -24.8
60) COCC(=O)Nc1ccc2c(c1)C(=O)N(C)C[C@H](OC)[C@@H](C)CN(Cc1cc(F)ccc1F)[C@H](C)CO2
→ -12.8, -4.5

# Continued:
[61] CN1C[C@@H]2[C@H](c3ccccc31)[C@H](CO)N2C(=O)CN1CCOCC1
  Vaccinia inh = 8.1; Vaccinia inh Venus = 6.0
[62] COc1ccc(NC(=O)Nc2ccc3c(c2)C(=O)N([C@H](C)CO)C[C@H](C)[C@H](CN(C)C(=O)C2CCCCC2)OCCCC[C@@H](C)O3)cc1
  Vaccinia inh = 21.6; Vaccinia inh Venus = 8.9
[63] COc1ccc(-c2ccc3c(c2)[C@H]2[C@H](CCN2C(=O)c2ccc4c(c2)OCO4)[C@H](CO)N3C)cc1
  Vaccinia inh = -22.3; Vaccinia inh Venus = -14.9
[64] C[C@H](O)C#Cc1ccc([C@@H]2[C@H](CO)N3CCCCN(C(=O)c4cccc(F)c4)C[C@@H]23)cc1
  Vaccinia inh = 4.1; Vaccinia inh Venus = 1.5
